ALR H2O2 inh: blocks human ALR sulfhydryl oxidase activity. purified ALR, DTT oxidation, H2O2 HRP-luminol luminescence. AID 485317. P55789. inhibition, % (no concentration beside the values). 3.8% of 290,000 active;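 active means mean and each replicate at 75% or more; inconclusive means only one of the two met; inactive means neither met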;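 further: stock transfer was 7.5 nL into about 7.5 µL; 0% = neutral wells and 100% = wells with inactivated enzyme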
Target sequence (P55789 whole entry, looked up): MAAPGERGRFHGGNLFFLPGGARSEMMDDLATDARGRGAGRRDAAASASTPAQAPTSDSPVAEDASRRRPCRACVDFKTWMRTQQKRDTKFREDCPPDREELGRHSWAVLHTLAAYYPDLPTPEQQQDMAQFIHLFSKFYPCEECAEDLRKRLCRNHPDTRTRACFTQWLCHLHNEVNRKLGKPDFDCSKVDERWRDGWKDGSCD
B2AR ag: human beta-2 adrenergic receptor agonism by FAP | P07550 | 0.43% of 340,000 active | response, % (test concentration not listed) | AID 504454 | Am2.2-beta2AR cells, FAP receptor internalization, flow cytometry; reference of the scale not given here;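 active means response above a set limit, near 3 SD of response in nonfluorescent compounds, cut at about 42% in these data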;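 further: stock transfer was 100 nL into about 11 µL; a reference agonist was the positive control; negative values mostly stem from fluorescent compounds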
Target sequence (P07550 whole entry, looked up): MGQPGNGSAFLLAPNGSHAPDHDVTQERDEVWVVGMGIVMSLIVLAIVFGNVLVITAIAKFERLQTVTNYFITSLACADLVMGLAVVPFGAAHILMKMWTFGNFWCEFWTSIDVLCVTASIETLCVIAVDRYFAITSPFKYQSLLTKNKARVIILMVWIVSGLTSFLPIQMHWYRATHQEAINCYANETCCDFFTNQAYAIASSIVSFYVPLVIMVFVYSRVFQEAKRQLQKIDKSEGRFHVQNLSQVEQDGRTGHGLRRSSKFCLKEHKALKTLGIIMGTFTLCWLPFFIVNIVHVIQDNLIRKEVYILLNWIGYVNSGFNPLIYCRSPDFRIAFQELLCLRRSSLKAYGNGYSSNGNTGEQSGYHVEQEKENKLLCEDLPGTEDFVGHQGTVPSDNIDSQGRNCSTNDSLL
FGF22 binding: shifts melting point of recombinant human FGF22; 1.5% of 340,000 active; recombinant FGF22 thermal shift, SYPRO orange fluorescence; percent of sucrose octasulfate shift, DMSO zero; AID 651658; calls only at 9.99 µM;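 active means melting point raised past a set limit in the mean and every replicate; inconclusive means no clear call; three in four hits are not shown here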
Target sequence (Q9HCT0 whole entry, looked up): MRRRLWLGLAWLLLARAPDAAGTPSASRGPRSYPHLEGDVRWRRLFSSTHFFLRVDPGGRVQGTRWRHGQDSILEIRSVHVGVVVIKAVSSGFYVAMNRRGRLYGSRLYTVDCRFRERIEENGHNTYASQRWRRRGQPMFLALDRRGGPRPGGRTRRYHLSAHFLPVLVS
E coli growth: blocks Escherichia coli growth. OD600, 23 h; stronger effect = lower value. OD600 absorbance (test concentration not listed). 0.21% of 330,000 active;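 active means OD600 absorbance below the run mean of sample wells minus 3.6 SD, in any replicate, cut at about 0.56 in these data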;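 further: stock transfer was 300 nL into about 60 µL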
UCH37 DUB inh: inhibitors of human deubiquitinating enzyme UCH37. purified proteasome/UCH37, Ub-AMC cleavage fluorescence. inhibition, % (concentration not given with the values). 0.33% of 330,000 active;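 active means mean of two replicates above 20%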;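 further: 0% = compound-free wells with enzyme and 100% = wells lacking proteasome; stock transfer was 100 nL into about 20 µL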
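system = Proteasome-associated human UCH37 deubiquitinase | amount = 0.15 nM proteasome as dispensed | medium = pH 7.4 Tris-HCl (50 mM) with ovalbumin, ATP-MgCl2, DTT | incubation = 30 min preincubation with enzyme, 25 min cleavage at room temperature | detection = AMC fluorescence 355/460 nm | read-out basis = percent inhibition | controls = no-proteasome and no-compound wells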
rRNA inh HTS: inhibits bacterial ribosomal RNA function over humanized ribosomes. E. coli WT GFP vs humanized-ribosome RFP mutants, fluorescence, 24 h; stronger effect = lower value; DMSO median 0, no signal -100. GFP signal change (wild-type ribosome), % (no concentration beside the values). 1.6% of 350,000 active. AID 720706;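 active means significant combined selectivity score with lowered wild-type GFP, culture density cut under 30%, mutant RFP and density less affected; inactive means any of these conditions unmet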; further: one replicate is shown; some compounds called inactive have numbers as strong as hits
HNF4A DNA FP: change in binding of human HNF4 alpha to DNA; P41235; HNF4a-FITC DNA binding, fluorescence polarization, 1 h; activity change, % at 10 µM; 0.3% of 360,000 active; AID 1224865; in the data active means activity change above about 30%, passing the limit was not always enough;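 further: controls were the assay level and a saturating level of protein; the project sought stronger binding though the title names inhibitors; some compounds called inactive have numbers as strong as hits; positive values seem to mean higher polarization but the record does not say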
rRNA inh HTS OD600: recorded beside rRNA inh HTS, whose call it bears; OD600 change, %; measured here: OD600 growth;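 optical density of the mix in the first replicate; 0 = DMSO median and -100 = no signal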
rRNA inh HTS RFP: recorded beside rRNA inh HTS, whose call it bears; RFP signal change, %; measured here: RFP humanized mutant strains;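 first replicate; 0 = DMSO median and -100 = no signal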
* marks the source's active call; other numbers are inactive results; i = inactive; ? = inconclusive; · = no result given. Not all compounds are listed, so the mix of outcomes need not match the whole.

compound	ALR H2O2 inh	B2AR ag	FGF22 binding	E coli growth	UCH37 DUB inh	rRNA inh HTS	rRNA inh HTS OD600	rRNA inh HTS RFP	HNF4A DNA FP
CC(C)(C)NC(=O)CSc1nc(O)cc(=O)n1-c1ccccc1F	8	19	·	0.66	0.4	·	·	·	78*
CCOC(=O)c1c(C)nc(SC)c(C#N)c1-c1ccccc1	·	2	·	0.72	1.5	·	·	·	-3.0
COc1ccc([N+](=O)[O-])c(O)c1C(C)=O	·	-7	i	0.65	5.6	2	14	0.5	-2.7
Cc1cccc(NC(=O)Nc2ccc(Br)cc2)n1	-10	-1	i	0.69	1.4	7	8	-0.1	6.1
CCN(CC(=O)NCc1ccc(Cl)cc1)C(=O)/C=C/c1ccc(C#N)cc1	6	-2	i	0.66	2.6	2	10	2.2	1.8
CC(Sc1nnc2ccccn12)C(=O)N1CCc2ccccc2C1 (stereo unspecified)	-3	-2	·	0.74	-2.0	·	·	·	-0.1
O=C(N/C(=C\c1ccc(Cl)cc1)C(=O)N1CCCCC1)c1ccco1	13	-6	i	0.71	6.2	-5	-11	2.1	-0.4
Cc1ccc(S(=O)(=O)NC(C(=O)N2CCOCCOCCOCCOCC2)c2ccccc2)cc1 (stereo unspecified)	1	-4	i	0.66	2.6	-2	7	-3.7	1.3
O=C(O)/C=C/C(=O)Nc1cc(F)ccc1F	5	-2	i	0.65	1.6	9	10	0.8	-1.3
NNC(=O)c1cc(C23CC4CC(CC(C4)C2)C3)nc2ccccc12	-5	-4	i	0.68	4.5	1	-5	1.3	0.9
COc1ccc(/C=C2\SC(=O)N=C2N)cc1	-5	-2	i	0.68	-11	10	1	-1.0	0.8
O=C(CC[C@H]1O[C@@H](n2cnc3c(NC(=O)c4ccccc4)ncnc32)[C@H](O)[C@@H]1O)NCCc1cc2ccccc2[nH]1	·	·	i	·	·	9	0	-0.9	-0.5
CC(Cc1cccnc1)NC(=O)c1cc(COc2ccc(F)cc2F)on1 (stereo unspecified)	-8	4	i	0.71	3.2	-10	-18	-0.9	-0.5
COc1ccc(NC2CC(=O)N(c3ccc(C(=O)O)cc3)C2=O)cc1 (stereo unspecified)	31	5	i	0.67	2.4	13	6	0.4	-3.0
COc1ccc2c(c1)c(C(=O)CN1CCC(C(N)=O)CC1)c(C)n2C	-4	-1	·	0.72	0.6	·	·	·	-1.1
O=S(=O)(NCCC1=CCCCC1)c1ccc(OC(F)(F)F)cc1	-3	0	i	0.68	-0.8	-1	5	-3.5	-0.3
O=C(Nc1ccc2c(c1)OCO2)c1ccc(Br)c(S(=O)(=O)N2CCCC2)c1	·	12	·	0.66	3.0	·	·	·	-6.3
CC(C)(C)NS(=O)(=O)c1cccc2nsnc12	-6	·	·	0.67	2.1	·	·	·	·
Cc1ccc2nc(NC(=O)C3CCN(S(=O)(=O)c4cccnc4)CC3)sc2c1	-5	11	i	0.71	2.7	-10	-18	1.8	0.0
CCc1ccccc1N(CC(=O)NCC1CCCO1)C(=O)CCC(=O)Nc1nccs1 (stereo unspecified)	·	-3	i	0.65	3.9	2	8	-2.9	4.0
Nc1cc(-c2ccccc2)n2c(n1)nc1ccccc12	-8	-7	i	0.62	2.3	2	-9	-1.2	-1.8
CCc1ccc(S(=O)(=O)NCCc2csc(C)n2)s1	0	17	i	0.68	-16	7	5	0.8	-1.2
N/C(Cc1ccc(Cl)cc1Cl)=N\OC(=O)Cc1cccs1	·	1	·	0.64	6.6	·	·	·	0.2
C/C=C(\C)C(=O)NCCN1C2=NC[C@@H](Cc3ccccc3)N2C[C@@H]1Cc1ccc(OC)cc1	-2	3	i	·	17	0	-4	1.9	5.1
Cc1ccc(Cl)cc1NC(=O)Cn1cc(C(F)(F)F)cc(Cl)c1=O	0	-3	i	0.68	1.4	9	1	-0.3	0.7
CC(C)Oc1ccccc1-c1nc(SCC(=O)O)n[nH]1	-9	8	·	0.7	1.1	·	·	·	0.1
Cc1cccc(NC(=O)c2ccc3c(c2)CCN3S(C)(=O)=O)c1	-8	3	i	0.59	1.7	-11	-2	-0.9	0.7
Cc1ccc2nc(-c3cccc(Br)c3)cc(C(=O)NCC3CCCO3)c2c1 (stereo unspecified)	2	7	i	0.7	-7.3	2	6	1.4	1.5
CCOC(=O)CNC(=O)c1ccc2c(c1)OCCO2	-20	-10	·	0.72	4.0	·	·	·	3.6
COc1cc(Cl)c(NS(=O)(=O)c2cc3[nH]c(=O)c(=O)[nH]c3cc2C)c(OC)c1	-160	8	i	0.77	3.9	-1	0	-1.9	2.9
CCN(CC)C(=O)[C@H]1C[C@H](CC(=O)NCCCn2ccnc2)C(=O)N2CCc3c([nH]c4cc(-c5ccco5)ccc34)[C@]12C	·	-6	i	0.67	-22	7	0	5.0	3.0
CC(NC(=O)COC(=O)c1ccc2c(c1)S(=O)(=O)N=C1CCCCCN12)C12CC3CC(CC(C3)C1)C2 (stereo unspecified)	-3	-9	i	0.74	-0.7	20	14	-5.2	-0.5
O=C(OCC(=O)N1CCCC1)c1ccco1	0	0	·	0.66	4.5	·	·	·	-1.8
O=C(N1CCCC1)C12CC3CC(CC(C3)C1)C2	0	-4	·	0.68	0.7	·	·	·	-3.3
O=C(Nc1cccc(F)c1)NC1CCCCC1	6	-7	·	0.71	2.6	·	·	·	0.2
COCCNCCCOc1ccc(Br)cc1Cl	-13	2	·	0.64	4.4	·	·	·	0.7
CCOC(=O)c1oc2ccccc2c1CN1CC(C)OC(C)C1 (stereo unspecified)	-3	12	i	0.66	4.3	-1	-12	-5.0	-2.5
COc1cc(OC)nc(NC(=S)NC(=O)c2ccccc2)n1	0	-1	i	0.72	1.1	1	-2	1.1	3.8
Cc1ccc(-c2nc(N3CCOCC3)sc2C(=O)N2CCCCC2)cc1	·	-11	i	0.74	0.3	-18	-15	20	-0.5
Nc1nc(SCC(=O)N2CCCC2)[nH]c(=O)c1NC(=O)c1cccs1	-10	-5	i	0.69	3.0	8	3	-4.0	2.1

Exported as labelled records: entries from further up
smiles: CCOC(=O)c1oc2ccccc2c1CN1CC(C)OC(C)C1 (stereo unspecified)
- ALR H2O2 inh: -3
- B2AR ag: 12
- FGF22 binding: i
- E coli growth: 0.66
- UCH37 DUB inh: 4.3
- rRNA inh HTS: -1
- rRNA inh HTS OD600: -12
- rRNA inh HTS RFP: -5.0
- HNF4A DNA FP: -2.5

smiles: COc1cc(OC)nc(NC(=S)NC(=O)c2ccccc2)n1
- ALR H2O2 inh: 0
- B2AR ag: -1
- FGF22 binding: i
- E coli growth: 0.72
- UCH37 DUB inh: 1.1
- rRNA inh HTS: 1
- rRNA inh HTS OD600: -2
- rRNA inh HTS RFP: 1.1
- HNF4A DNA FP: 3.8

smiles: Cc1ccc(-c2nc(N3CCOCC3)sc2C(=O)N2CCCCC2)cc1
- ALR H2O2 inh: ·
- B2AR ag: -11
- FGF22 binding: i
- E coli growth: 0.74
- UCH37 DUB inh: 0.3
- rRNA inh HTS: -18
- rRNA inh HTS OD600: -15
- rRNA inh HTS RFP: 20
- HNF4A DNA FP: -0.5

(continued)
compound	ALR H2O2 inh	B2AR ag	FGF22 binding	E coli growth	UCH37 DUB inh	rRNA inh HTS	rRNA inh HTS OD600	rRNA inh HTS RFP	HNF4A DNA FP
O=C(Nc1ccccc1N1CCN(c2ccccc2)CC1)c1cccc(F)c1	2	6	·	0.7	1.4	·	·	·	-1.6
C[C@H]1C(=O)N(c2ccccc2)[C@@H]1c1ccccc1	·	-2	i	0.72	1.3	-16	-15	-7.5	-0.3
COc1ccc(-c2nnc(C(C)Nc3cccc(C(=O)NC4CC4)c3)o2)cc1 (stereo unspecified)	14	-4	i	0.7	-5.4	14	-1	1.1	5.8
CC(C)c1ccc(NC(=O)CSc2nc3ccccc3nc2N2CCCC2)cc1	30	-13	i	0.84	-6.9	1	-14	-6.0	2.1
CCC(=O)c1cn(CC(=O)OC)c2ccccc12	-1	7	·	0.7	0.3	·	·	·	-1.8
CC(NC(=O)COC(=O)/C=C/c1ccco1)c1ccccc1 (stereo unspecified)	11	-2	i	0.65	4.1	16	13	4.3	-5.2
CC(=O)c1cnc(Nc2nc(C)c3ccc(C)cc3n2)nc1C	·	1	·	0.7	2.8	·	·	·	3.9
CCC(CC)C(=O)c1c[nH]c(C(=O)NCc2ccc(F)cc2)c1	-4	3	i	0.67	1.7	-3	0	-2.1	2.2
Cc1ccc(C(c2nnnn2C2CCCC2)N2CCN3CCCC3C2)cc1 (stereo unspecified)	-28	-2	·	0.67	0.2	·	·	·	-0.1
CSc1nc(C)cc(Oc2ccc(OCC(N)=O)nn2)n1	-2	7	i	0.66	-0.5	12	6	0.6	8.3
COc1ccc(NC(=O)c2cccc(S(=O)(=O)N3CCCC3)c2)cc1OC	·	-2	i	0.71	3.4	·	·	·	-0.8
Cc1cccc(Oc2nc(-c3ccccc3)cc(C)c2S(C)(=O)=O)c1C	3	2	·	0.81	4.4	·	·	·	2.2
O=C(CCCc1c[nH]c2ccccc12)NCc1ccccc1F	·	-2	i	0.66	1.4	-3	-13	0.0	-1.2
Cc1ccsc1-c1nc(CSCC(=O)NCc2ccc3c(c2)OCO3)c(C)o1	99*	-4	i	0.75	2.4	-20	-36	-4.3	2.5
CCCN1CC(=O)N2Cc3[nH]c4ccccc4c3C[C@H]2C1=O	-7	2	i	0.65	-1.5	1	3	4.1	2.7
NNC(=O)c1ccc(CSc2n[nH]c(=O)[nH]c2=O)cc1	?	-6	i	0.68	1.2	10	16	0.7	-1.1
Cc1ccc(S(=O)(=O)N(C)C)cc1NC(=O)C(C)OC(=O)c1ccc2c(=O)n3c(nc2c1)CCC3 (stereo unspecified)	·	9	i	0.7	-7.7	-4	11	0.6	1.1
CC(Cc1cccs1)NC(=O)Nc1ccc(F)cc1 (stereo unspecified)	24	-1	·	0.65	1.8	·	·	·	0.3
Cn1c(=O)c2c([nH]c(=S)n2CCCc2ccccc2)n(C)c1=O	34	-11	i	0.67	4.3	4	-2	0.3	0.8
Cc1noc(NS(=O)(=O)c2ccc(NC(=O)c3cc(-c4ccccc4Cl)nc4ccccc34)cc2)c1C	12	-16	·	0.68	4.5	-24*	-14*	1.7*	-1.0
CCCCCN(C(=O)CCC(=O)OCC(=O)N(C)Cc1ccccc1C)c1c(N)n(CCCC)c(=O)[nH]c1=O	-2	-8	i	0.66	1.8	-2	-1	1.6	1.9
COc1ccc(OC)c(NC(=O)CCCNC(=O)Cn2cnc3sc(C)c(C)c3c2=O)c1	1	-9	i	0.66	1.8	10	6	-0.2	2.0
Cn1cnnc1SCC(=O)Nc1ccc2nc(SCc3ccccc3F)sc2c1	19	0	i	0.67	4.4	-23*	4.4*	1.4*	6.4
COC(=O)c1cc(C)cc(=O)o1	-18	3	i	0.62	3.2	10	6	3.9	2.1
COc1cc(NC(=O)C2(C)CCCN2C)cc(OC)c1OC (stereo unspecified)	·	·	i	·	·	13	21	0.3	-2.0
CCOC(=O)N1CCN(c2nc(SC)nc3sc4c(c23)CC(C)(C)OC4)CC1	-14	-18	·	0.67	-253	·	·	·	1.3
Cc1ccc2cc(CN(CC3CCCO3)S(=O)(=O)c3cccc4nsnc34)c(=O)[nH]c2c1 (stereo unspecified)	-2	-12	·	0.69	7.1	·	·	·	1.3
O=C(NCCc1ccc(Cl)cc1)C1CC(=O)N(C2CCCCC2)C1 (stereo unspecified)	-10	3	i	0.69	3.4	-4	4	-1.5	-0.2
C/C(=N/OCC(=O)Nc1ccc(C)cc1C)c1cccs1	3	-9	·	·	·	·	·	·	0.3
COc1ccc(-c2sc3ccccc3c2-c2cc(OC)ccc2C=O)cc1	·	·	i	·	·	14	15	1.7	0.4
CN(Cc1ccccc1)C(=O)COc1ccc(C(C)(C)C)cc1	-8	-9	i	0.64	0.8	-2	-9	-4.8	-1.4

From PubChem BioAssay
